Source: PubChem (Fisher Drug Discovery Resource Center)
NPYLR7 ag – mosquito NPYLR7 agonism | HEK293T NPYLR7/Galpha15, GCaMP6s calcium fluorescence | activation, % at 10 µM | hit rate 0.15% among 270,000; in the data active = activation above about 40%;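 also: 0% = vehicle and 100% = reference agonist at the receptor; some compounds past the cut are filed as inactive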
NPYLR7 ag max-min – second read-out of NPYLR7 ag, no call of its own (marks repeat the call); activation, %; measured here: Max-Min RFU normalised activation; some inactives read as strong as hits;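 span of the calcium signal over five minutes; 0% = vehicle and 100% = native peptide agonist; compound fluorescence can raise it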
* hit, by the source's call; & = joins results of further samples.

SMILES	NPYLR7 ag	NPYLR7 ag max-min
CCC(C)N(Cc1ccncc1)C(=O)c1ccc(C#CC(C)(C)O)cc1 (centres undefined)	2	1
O=C(c1cn(Cc2ccc(F)cc2Cl)nn1)N1CCC(C2CCCCC2)C1 (centres undefined)	21	11
Cc1c(C)n(Cc2ccco2)c2ncnc(Nc3ccc(O)cc3)c12	-2	-3
CN(Cc1n[nH]c2c1CCCCC2)C(=O)[C@@H]1C[C@H](N)CN1C	17	14
Cc1nn(CC(=O)Nc2ccc(Oc3ccc(Cl)cc3)cc2)c(C)c1[N+](=O)[O-]	5	3
COC(=O)c1ccc(NC(=O)Cn2cc(OCc3ccccc3C)c(=O)cc2CO)cc1	1	0
Cc1cccnc1NC(=O)NCC(O)c1ccc(OC(F)(F)F)cc1 (centres undefined)	-2	-3
CCC1=C(C(=O)OC)C(c2cccc(O)c2)n2ncnc2N1 (centres undefined)	3	0
COCc1noc(C(C)c2ccc3ccccc3c2)n1 (centres undefined)	3	0
COc1ccc(C)nc1NC(=O)c1ccc(C)nc1	-6	-6
O=C(Nc1ccc(-c2nc3ccccc3o2)c(O)c1)c1cccc([N+](=O)[O-])c1	-7	-13
Cc1cccc(-c2nc3scc(CCNS(=O)(=O)c4ccc(F)c(C)c4)n3n2)c1	3	1
O=C(CN1CCN(c2cccc(Cl)c2)CC1)N1CCNC1=O	-5	-7
CC(C)CCNC(=S)NNC(=O)C1CCCO1 (centres undefined)	0	1
CCC(=O)N1CCCC(N2CCN(c3ccccc3)CC2)C1 (centres undefined)	0	0
Cc1cc(C)c(CNC(=O)N2CCC(c3noc(C)n3)CC2)c(C)c1	5	2
CCC(NS(=O)(=O)c1cnn(C)c1)c1cccc(Cl)c1 (centres undefined)	-2	-3
CC(=O)NC(NC(=S)Nc1ccccc1O)C(Cl)(Cl)Cl (centres undefined)	-11	-18
COc1cc(C)ccc1S(=O)(=O)NC(=O)C1(C)CCN1C(=O)CC1CCCC1 (centres undefined)	9	6
Cc1ccc(O)c(S(=O)(=O)Nc2ccc(N3CC(C)OC(C)C3)cc2)c1 (centres undefined)	8	6
O=C(CCCc1nnc(-c2ccccc2)o1)N1CCN(CCO)CC1	3	1
COc1ccc(OC)c(NC(=O)Cn2c(-c3nnc(C(C)C)o3)cc3ccccc32)c1	-6	-6
c1cc2c(cc1-c1[nH]ncc1CNCCCOC1CCCCC1)OCO2	4	0
Cn1cc(SCC(=O)N2CCCC3(CC2)CNC(=O)O3)c2ccccc21 (centres undefined)	18	6
Fc1ccccc1Oc1cc(N2CCOCC2)ncn1	-1	5
O=C(Nn1ccc2c(nnc3c(-c4ccccc4)cnn32)c1=O)c1ccccc1	-2	-1
O=C(O)c1cc2cc(Br)cc(Br)c2oc1=O	-1	-2
CCCCCN(CC(=O)N1CCc2sccc2C1c1ccc(Cl)cc1Cl)C(=O)/C=C/c1ccc([N+](=O)[O-])cc1 (centres undefined)	6	13
O=C1CN(C(=O)c2ccc(F)cc2)CC(O)CN1Cc1ccc(Cl)cc1 (centres undefined)	26	23
CC(C)NC(=O)C(C#N)=Cc1ccc(Cl)cc1Cl	0	0
Cc1cnn(CCC(=O)N(C)c2ccc(Cl)cn2)c1	-2	-6
O=[N+]([O-])C1C(c2ccccc2)=NOC1c1ccccc1O (centres undefined)	20	-1
O=C1c2cccc3c([N+](=O)[O-])ccc(c23)C(=O)N1c1ccccc1	-1	-8
O=C(c1ccc2c(c1)CCO2)N1CCN(Cc2ccc(-c3noc(-c4ccccc4)n3)cc2)CC1	8	14
COc1ccc2ccccc2c1CNC(=O)NC1COc2ccccc21 (centres undefined)	-8	349
CC(C(=O)Nc1ccc(C#N)cc1)N1C(=O)N(C)C(C)(C)C1=O (centres undefined)	5	1
Cc1cccn2c(CNC(=O)CCn3cncn3)cnc12	2	0
CC(CNc1ccccn1)CC1(C)OCCO1 (centres undefined)	23	9
C=CCN=c1scc(-c2ccc(Cl)cc2)n1N=Cc1cccnc1	-2	-8
COc1ccccc1OCc1cc(C(=O)N(CCO)Cc2ccccc2)no1	-2	-2
CCCCNC(=O)N(CCOC)Cc1ccc(OS(C)(=O)=O)cc1	-7	-5
Cc1cccc(COCC2CN(C(=O)c3cnc4ccccc4c3)CCO2)c1 (centres undefined)	23	30
CCOC(=O)C1=C(CC)NC2=C(C(=O)CCC2)C1c1ccc(O)c(OC)c1 (centres undefined)	-4	-9
CC(C)c1nccc(C(=O)N2[C@@H]3CC[C@H]2CNC(=O)C3)n1	-1	-2
COc1nc(-c2cccc(C(F)(F)F)c2)n(-c2ccc(NC(=O)C(c3ccccc3)c3ccccc3)cc2)n1	23	29
O=C(c1cc(=O)c2ccccc2o1)N1CCN(c2ncnc3c2nnn3-c2ccc(F)cc2)CC1	-12	-21
COCCCNC(=O)CN1CN(c2ccccc2)C2(CCN(S(=O)(=O)c3ccc(C)cc3)CC2)C1=O	3	15
O=c1c2nnn(-c3ccc(Cl)cc3)c2ncn1Cc1ccc(Cl)cc1Cl	0	0
COCC(=O)N1CCCN(CCn2c(=O)oc3ccccc32)CC1	26	10
Cc1ocnc1C(=O)N1CCCC(C(=O)Nc2cccc(-c3ccc(F)cc3)c2)C1 (centres undefined)	-7	-7
Following part
SMILES	NPYLR7 ag	NPYLR7 ag max-min
CCN(Cc1cnn(C)c1)Cc1nc(C(c2ccccc2)c2ccccc2)no1	-4	-5
O=c1cc(-c2ccncc2)nc(-c2ccc(CN3CCCNCC3)cc2)[nH]1	1	-4
CC(Oc1ccccc1C#N)C(=O)N1CCN(C(=O)c2cc(Cl)cc(Cl)c2)CC1 (centres undefined)	9	3
COc1ccccc1CCc1nnc(CCC(=O)NC(C)CCn2cccn2)o1 (centres undefined)	7	11
O=C(CCc1ncc(-c2ccccc2)o1)N1CCCC1c1cccs1 (centres undefined)	-2	-3
Cc1nc(-c2ccco2)ccc1C(=O)NCC(=O)NC(C)(C)C	27	20
OCCC1CN(Cc2cccc3nccnc23)CCN1Cc1ccc(F)c(F)c1 (centres undefined)	-2	-3
COc1ccc(-n2cc(-c3ccc([N+](=O)[O-])cc3)[n+]3c2SCCC3)cc1	1	6
COc1cc(C(=O)NCc2nc(C)cs2)cc(Cl)c1OCC(N)=O	6	4
CN1CC(=O)NC(=O)C1	13	13

Profiles from above.
COc1ccc(-n2cc(-c3ccc([N+](=O)[O-])cc3)[n+]3c2SCCC3)cc1 across the screens: NPYLR7 ag = 1; NPYLR7 ag max-min = 6
COc1ccc(OC)c(NC(=O)Cn2c(-c3nnc(C(C)C)o3)cc3ccccc32)c1 across the screens: NPYLR7 ag = -6; NPYLR7 ag max-min = -6

(further entries)
SMILES	NPYLR7 ag	NPYLR7 ag max-min
CCO[C@H]1COC[C@@H]1NC(=O)c1cc(-c2ccc(O)cc2)n[nH]1	-7	-14
CCS(=O)(=O)N1CCC(NC(=O)C=C(C)C)CC1	8	7
C=CCN(CC(=O)N1CCc2sccc2C1c1ccc(F)cc1)C(=O)c1ccc(Cl)cc1 (centres undefined)	10	11
O=C(O)c1csc(CSc2nnc(-c3cccnc3)n2-c2cccc(Cl)c2)n1	-8	-18
O=C(COc1c(Cl)cccc1Cl)Nn1cnc2scc(-c3ccccc3)c2c1=O	10	14
CC(=O)N1CC(C(=O)N=c2sccn2Cc2ccc(C)cc2)Oc2ccccc21 (centres undefined)	1	-1
CCCN(Cc1cc(=O)n2ccccc2n1)C1CCc2ccccc2C1 (centres undefined)	5	3
CN(Cc1ccc(-n2ccnc2)cc1)Cc1cccc2cnccc12	-10	-13
COCc1cc(N(C)Cc2ccccc2)nc(SCc2cccc(C(=O)NCC3CCCO3)c2)n1 (centres undefined)	8	9
Nc1ccnc(-c2cccc3[nH]ccc23)c1	15	3

Some of the entries so far, in CSV form:
SMILES,NPYLR7 ag,NPYLR7 ag max-min
O=C(CCc1ncc(-c2ccccc2)o1)N1CCCC1c1cccs1 (centres undefined),-2,-3
Cc1nc(-c2ccco2)ccc1C(=O)NCC(=O)NC(C)(C)C,27,20
OCCC1CN(Cc2cccc3nccnc23)CCN1Cc1ccc(F)c(F)c1 (centres undefined),-2,-3
COc1ccc(-n2cc(-c3ccc([N+](=O)[O-])cc3)[n+]3c2SCCC3)cc1,1,6
COc1cc(C(=O)NCc2nc(C)cs2)cc(Cl)c1OCC(N)=O,6,4
CN1CC(=O)NC(=O)C1,13,13
CCO[C@H]1COC[C@@H]1NC(=O)c1cc(-c2ccc(O)cc2)n[nH]1,-7,-14
CCS(=O)(=O)N1CCC(NC(=O)C=C(C)C)CC1,8,7
C=CCN(CC(=O)N1CCc2sccc2C1c1ccc(F)cc1)C(=O)c1ccc(Cl)cc1 (centres undefined),10,11
O=C(O)c1csc(CSc2nnc(-c3cccnc3)n2-c2cccc(Cl)c2)n1,-8,-18
O=C(COc1c(Cl)cccc1Cl)Nn1cnc2scc(-c3ccccc3)c2c1=O,10,14
CC(=O)N1CC(C(=O)N=c2sccn2Cc2ccc(C)cc2)Oc2ccccc21 (centres undefined),1,-1
CCCN(Cc1cc(=O)n2ccccc2n1)C1CCc2ccccc2C1 (centres undefined),5,3
CN(Cc1ccc(-n2ccnc2)cc1)Cc1cccc2cnccc12,-10,-13
COCc1cc(N(C)Cc2ccccc2)nc(SCc2cccc(C(=O)NCC3CCCO3)c2)n1 (centres undefined),8,9
Nc1ccnc(-c2cccc3[nH]ccc23)c1,15,3

(list continues)
SMILES	NPYLR7 ag	NPYLR7 ag max-min
CNC(=O)CSc1nnc(N2CCN(C(=O)Cc3ccccc3Cl)CC2)s1	-12	-12
CC(=O)Nc1cc(-c2ccccc2)nn1-c1ccc(C(=O)NCCc2cccc(F)c2)cc1	-11	-13
Cc1ccc(-n2nc(C(C)C)c(C(=O)O)c2C(C)C)cc1	0	14
O=C(N=Nc1c(O)[nH]c2ccccc12)c1ccccc1O	-4	-7
COc1ccc(-c2cnc3c(NC=O)cc(-c4cccs4)cn23)cc1OC	-4	-10
CN(Cc1ccc(F)cc1F)c1nc(NCCO)c2ccccc2n1	1	0
COc1ccc(OC)c(C2C(C(=O)c3ccco3)=C(O)C(=O)N2CCN2CCOCC2)c1 (centres undefined)	11	16
CCOC(=O)C1CCN(C(=O)c2cc(-c3cccc(OC)c3)nc3cc(C(C)(C)C)nn23)CC1	-7&20	-6&22
Cc1ccc(S(=O)(=O)N(Cc2cccnc2)Cc2nccn2Cc2ccccc2F)cc1	23	33
O=C1C(C(c2ccc(F)cc2)N2CCC(O)CC2)Sc2nc(-c3ccco3)nn21 (centres undefined)	7	5
CCCc1nc(CNC2CCN(C(=O)c3ccccc3)CC2)cs1	25	15
Cc1onc(-c2ccccc2)c1C(=O)Nc1sc(C)c(C)c1C(=O)OC(C)C	0	0
CCOC(=O)C(=O)N1CCCN(Cc2cc(=O)c(OCc3ccc(C(C)(C)C)cc3)co2)CC1	24	12
CC(C(=O)O)N1C(=O)CSC1c1ccccc1F (centres undefined)	-2	-6
CN(C)c1ccc(N2C(=O)C=CC2=O)cc1	6	9
Cc1cccc(CN2CCN(C(=O)CSc3nnnn3-c3c(C)cccc3C)CC2)c1	4	5
CC(C)c1ccc(CCC(=O)NCc2cc(Br)c[nH]2)cc1	4	2
CCOC(=O)c1c(C)[nH]c(C(=O)NC(C)C(=O)N2CCOCC2)c1C (centres undefined)	12	10
CN1CCC2(CC1)NC(=O)NC2=O	12	21
COc1ccc(S(=O)(=O)CCCC(=O)N=c2sc3c(OC)ccc(OC)c3n2C)cc1	10	8
CCOC(=O)C1(CCc2ccccc2)CCN(C(=O)c2cccc(C(=O)OC)c2)CC1	1&3	-2&5
Cc1c(CN2CCCC(c3nc(C(C)C)no3)C2)c2ccccc2n1CC(N)=O (centres undefined)	9	-3
CC(=O)c1c(-c2ccccc2)nc2n(C)c3cc(C)c(C)cc3n12	-16	-21
COC(=O)c1ncn(Cc2nc3ccc(Cl)cc3c(=O)[nH]2)n1	-3	5
OCCSc1c(F)c(F)c(SCCO)c(F)c1F	-2	-2
CN(C)c1c(Cl)cccc1NC(=O)C1CCN(c2ccccc2Br)C1=O (centres undefined)	5	4
CCOc1ccc(CN2C(=O)C(O)(CC(C)=O)c3cccc(C)c32)cc1 (centres undefined)	27	19
Cc1ccc(N=C2N=C(N)c3ccccc32)cc1Cl	4	3
CC1CCc2[nH]nc(C(=O)N3CCC4(CC3)C(=O)N(C)c3ccccc34)c2C1 (centres undefined)	-4	-5
CCc1nc2n(n1)C(=O)C(C(c1ccc(Cl)cc1)N1CCN(CCO)CC1)S2 (centres undefined)	-4	-12
Cc1oc2c(CN3CC(C)OC(C)C3)c(O)ccc2c(=O)c1-c1ccccc1Cl (centres undefined)	6	3
NS(=O)(=O)c1ccc(CCNC(=O)C2CC23c2ccccc2-c2ccccc23)cc1 (centres undefined)	-6	-12
C=C(C)Cn1c(SC(C)C(C)=O)nc2c1c(=O)[nH]c(=O)n2C (centres undefined)	-6	2
Cn1c(SCC(=O)N2CCN(c3ccccc3F)CC2)nc2c(-c3ccccc3)c[nH]c2c1=O	1	-3
CC1(C)C2(C(=O)N3CCN(Cc4cc(=O)c(OCc5ccc(C(F)(F)F)cc5)co4)CC3)CC[C@@]1(C)C(=O)O2	25	11
CN(CC1CCCCO1)C(=O)C1CCCCC1C(=O)N1CCCC1 (centres undefined)	3	2
COc1ccc(CC(=O)Nc2cccc(C3SCC(=O)N3c3ccc4c(c3)OCO4)c2)cc1 (centres undefined)	1	14
Cc1ccccc1C(=O)N[C@@H]1CCCCC1NC(=O)C1CCCN(S(=O)(=O)c2cc(Cl)ccc2Cl)C1 (some centres undefined)	2	10
CCc1nnc(CN(CC)C(=O)c2cccc(-c3ccc(C)o3)c2)o1	5	4
CC(=O)N1CCC2(CC1)OC(=O)C(C)=C2C(=O)NC(C)C	7	5
CC1(C(=O)Nc2ccccc2)CCN1C(=O)CCc1ccc(Cl)cc1Cl (centres undefined)	-4	1
NC(=O)C1CCN(c2ccc(NC(=O)CC3CCCCC3)cc2)CC1	4	4
COCCN(Cc1c(-c2cccc(C)c2)noc1N1CCCC1)C(=O)c1cccc(OC)c1	31	29
c1ccc(C2CN(c3nc(-c4cccnc4)nc4c3CNC4)CCN2)cc1 (centres undefined)	2	1
CCN[C@H]1CN(CCCOC)S(=O)(=O)c2sc(S(N)(=O)=O)cc21	0	-6
C=CCNC(=O)C(C1CCCC1)N1CCN(C(=O)c2ccc(C(C)(C)C)cc2)CC1 (centres undefined)	-8	-1
Cn1ccnc1C(NC(=O)COc1ccccc1)c1ccc(F)cc1 (centres undefined)	1	11

This is a subset; rates above refer to the full screens.
